High-throughput results (PubChem)
HTT promoter inh = Primary qHTS for Identification of Small Molecule Inhibitors of Huntingtin Promoter Activity. HEK293 HTT promoter firefly luciferase reporter (activity 0% = vehicle and -100% = no light), 24 h. Potency, µM (top dose mostly 57.5 µM), without a hit: at the highest dose activity change, negative = inhibition, most hits filed as inhibitors. 0.93% of 48,000 active. AID 1508623, 2021; active = well fitted inhibition curve with a large enough effect; inconclusive = small, poorly fitted or top-dose-only effect; inactive = no such curve, though single readings can be large or run the other way; also: nearly all actives have a fitted effect of over 50% in size
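Firefly luciferase readout (Dual-Glo, 10 min RT) after 24 h, 37 °C compound exposure (final up to 57.5 uM) of HEK293 reporter cells cultured 24 h beforehand; PTC124 at 50 uM final as control inhibitor; activity scaled vehicle 0%, zero RLU -100%.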
PMP22 txn = Cell-based coincidence reporter assay to measure PMP22 gene transcription in S16 Pmp22-F2sN cells - Primary screen; S16 Pmp22-F2sN Schwann cells (luciferase reporters placed in the Pmp22 gene), FLuc/NLuc coincidence luminescence, 24 h; Potency, µM (doses to about 57.5 µM), inactives show at the top dose activity change, negative = inhibition, usual class: inhibitors; 2% of 43,000 active; AID 1508649, 2021; active = clear falling dose curves in both reporters; inconclusive = both reporters move, but less clearly or upward; inactive = either reporter flat; the % is the NLuc reporter signal; also: % is scaled to controls: 0 for no effect and ±100 for the full control effect; some results filed as inactive show a strong effect at the top dose
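S16(c9) Schwann cells with FLuc/NLuc coincidence reporter in the Pmp22 3' UTR; compounds pin-transferred, 24 h at 37C. Dual-luciferase read: FLuc first, then NLuc after Stop&Glo, each 10 min at room temperature.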
Active calls of the source: *; u = inconclusive; x = no result given; & = joins results of further samples; [ ] = remark or other dose. Potency is read from the fitted curve at half-maximal effect.

SMILES	HTT promoter inh	PMP22 txn
CC(C)OCCCN1C(=O)c2[nH]nc(-c3ccccc3O)c2C1c1ccccc1F (stereo not drawn)	u	-4.9%
COc1ccc(NC(=O)CSC2=Nc3ccccc3C3=NC(CC(=O)NCc4ccco4)C(=O)N23)cc1 (stereo not drawn)	u	u
O=C(CCS(=O)(=O)c1nc(-c2cccs2)cc(C(F)(F)F)n1)Nc1ccc(Br)cc1	u	6.45µM*
CC1CCCCN1CCCNC(=O)Cn1ncc2c3ccccc3n(Cc3ccccc3F)c2c1=O (stereo not drawn)	2.4%	u
Cc1ccc(NC(=O)Cn2c(=O)n(-c3ccc(C)cc3)c(=O)c3c2cnn3C)cc1	-2.4%	-82.6%
O=C(Cn1c(=O)n(-c2ccccc2)c(=O)c2c3c(sc21)CCCC3)Nc1ccccc1	-14.4%	0.0%
CCC(CC)c1nn2c(=O)cc(COc3ccc(NC(=O)c4ccc(C)cc4)cc3)nc2s1	-0.7%	8.0%
CCc1ccccc1NC(=O)Cn1nc(-c2cc(C)ccc2C)c2c(c1=O)CCCC2	-15.6%	-17.6%
CC(C)(C)OC(=O)N1CCC(c2c(C(=O)NCc3ccco3)cnn2-c2ccccc2Cl)CC1	-7.8%	-31.9%
COc1cccc(N2CCN(C3=NS(=O)(=O)C(c4ccc(C)cc4)=C3C)CC2)c1	-23.0%	-1.3%
CCN(CC)CCCNC(=O)c1ccc2nc(N3CCCCC3)sc2c1	u	-1.7%
Cc1nc(-c2ccc(F)cc2)sc1CCNC(=O)C(=O)Nc1ccc2c(c1)OCCO2	-19.8%	u
Cc1ccc(OCCCC(=O)Nc2sc3c(c2C(N)=O)CCCC3)cc1	-14.8%	-5.8%
O=C(CCCn1c(=O)c2cccn2c2ccccc21)Nc1cc(C(F)(F)F)ccc1Cl	-1.0%	u
Cc1cccc(C(=O)Nc2nnc(S(=O)(=O)N(C)c3ccccc3C)s2)c1	-28.5%	-4.6%
Cc1ccccc1-c1nnc(SCC(=O)N2CCCCC2)o1	48.9%[activator]	17.4%
Cc1cc2c(cc1S(=O)(=O)NCc1ccc(F)cc1)OCC(=O)N2	-23.7%	20.5%
COc1ccc(-c2nc(CSc3nncn4c3cc3oc(C)cc34)c(C)o2)cc1	0.5%	-6.3%
Cc1cccc(Cn2c(=O)n3nc(-c4ccccc4)nc3c3ccccc32)c1	u	u
O=C(Nc1ccc(S(=O)(=O)N2CCC(c3nc4ccccc4s3)CC2)cc1)c1ccc(F)cc1	-10.9%	-0.2%
Nc1c(C(=O)Nc2ccc(C(F)(F)F)cc2)sc2nc(-c3cccs3)ccc12	5.6%	-31.1%
CC(C)(C)C1CCc2c(sc3nnn(CCOc4ccccc4)c(=O)c23)C1 (stereo not drawn)	9.4%	-1.6%
COc1ccc(OCC(=O)Nc2cc(-c3nc4ccccc4o3)ccc2Cl)cc1	49.0%[activator]	2.6%
Cc1ccc(NC(=O)c2cccc(NC(=O)N3CCSc4ncccc43)c2)cc1Cl	-9.3%	u
CCc1nn(CCCC(=O)NCc2cc(Br)ccc2OC)c(=O)c2cc3occc3n12	u	u
(continued)
SMILES	HTT promoter inh	PMP22 txn
Cc1cc(C)cc(NC(=O)N2CCC(CN3CCOCC3)CC2)c1	-5.2%	u
Cc1ccccc1-c1noc(CSc2nnc(-c3ccncc3)n2-c2ccc(F)cc2)n1	u	u
Cc1cccc(C(=O)Nc2nnc(S(=O)(=O)N3CCOCC3)s2)c1	13.5%	1.4%
Cc1cccc(OCC(O)Cn2c(=N)n(CCN3CCCCC3)c3ccccc32)c1 (stereo not drawn)	-26.3%	u
Cc1ccc(C)c(N2CCN(C(=O)c3cc(C)nc4c3c(C)nn4-c3ccccc3)CC2)c1	u	-10.8%
COc1ccc(Cl)cc1NC(=O)c1cc(S(=O)(=O)N(C)Cc2ccccc2)ccc1F	-18.0%	-15.3%
CCOc1ccc(NC(=O)CSc2cn(CC(=O)N3CCCCCC3)c3ccccc23)cc1	u	-44.6%
COc1cc([N+](=O)[O-])ccc1NC(=O)N1CCC2(CC1)Nc1cc(F)ccc1-n1cccc12	u	0.8%
CC(=O)c1cc2c(cc1N/C(=N/S(=O)(=O)c1ccc(C)cc1)c1ccccc1)OCO2	-22.4%	10.1%
Cc1ccc2c(c1Br)C(O)(CC(=O)c1ccc(F)cc1)C(=O)N2 (stereo not drawn)	-9.0%	-30.3%
COc1ccccc1N1CCN(C(=O)c2cc3c(-c4ccccc4F)nn(C)c3s2)CC1	u	u
CCCCN(CCCC)C1=C(C(=O)c2ccccc2)N(C)S(=O)(=O)c2ccccc21	u	0.3%
CCOc1ccc(NC(=O)c2sc3nc4c(c(-c5ccc(OC)cc5)c3c2N)C(=O)CC(C)(C)C4)cc1	-3.7%	4.9%
CCOc1ccccc1NC(=O)Cn1c(=O)n(CC(=O)NCc2ccccc2Cl)c(=O)c2sccc21	-10.2%	u
Fc1ccc(-c2noc3ncnc(NCc4cccc(Cl)c4)c23)cc1	-17.0%	-6.7%
COc1ccc(-c2cc(C(F)(F)F)nc(NCCc3ccccc3)n2)cc1	7.8%	-63.2%
CCN(CC)C(=O)Cn1c(=O)n(-c2ccccc2)c(=O)c2c3c(sc21)CCC3	0.0%	2.9%
Cc1ccc(OCC(=O)N(Cc2ccco2)Cc2ccco2)cc1	-10.3%	-16.5%
CCOc1ccccc1N(C)C(=O)c1sc2nc3n(c(=O)c2c1C)CCCC3	-5.8%	u
COc1cc(Cl)c(C)cc1NC(=O)c1ccc2c(SCC(=O)O)c3c(nc2c1)CCCC3	9.3%	-42.9%
Cc1cc(C)cc(Oc2coc3c(CN4CCN(C)CC4)c(O)ccc3c2=O)c1	-5.5%	-10.2%
CCN(CC)C(=O)c1sc2c(c1C)c(=O)n(-c1ccc(Cl)c(Cl)c1)c(=O)n2Cc1ccccc1C#N	-12.6%	u
Cn1c(=O)c2[nH]cnc2n(C)c1=O	0.1%&-7.1%	x
CCC(C)NC(=O)CSc1nc2c(sc3ccccc32)c(=O)n1CCc1ccc(OC)c(OC)c1 (stereo not drawn)	-4.6%	-2.4%
COc1cccc(NC(=O)CN2C(=O)CSc3ccc(S(=O)(=O)N4CCCC4)cc32)c1	-22.5%	4.0%
The listing continues.
SMILES	HTT promoter inh	PMP22 txn
Cc1ccc(-n2nc(CO)c(C(=O)NCc3cccnc3)n2)cc1	-27.1%	-4.2%
COc1ccc(CCNC(=O)C2CCC(CNS(=O)(=O)c3ccc(C)cc3)CC2)cc1OC (stereo not drawn)	u	0.8%
Clc1ccccc1-c1nnc(-c2ccccc2CNc2ccccc2)o1	14.4%	-1.6%
CSCC[C@@H](C(=O)Nc1cccc(F)c1)N1Cc2ccccc2C1=O	-4.3%	-2.5%
CN1CCN(C(=O)Cn2c(-c3cccs3)cc3ccccc32)CC1	-13.0%	-12.5%
Cc1ccc(C)c(N2CCN(C(=O)c3cnn(-c4ccccc4Cl)c3C3CCN(C(=O)OC(C)(C)C)CC3)CC2)c1	u	u
CCOc1cccc2cc(-c3nc4ccc(C(=O)O)cc4[nH]3)c(=O)oc12	u	-10.9%
CCCc1nn2c(=O)cc(COC(=O)c3ccc(NC(=O)CCc4ccccc4)cc3)nc2s1	-30.8%	-1.8%
c1ccc(-c2nc[nH]c2-c2ccccc2)cc1	-9.6%	x
COc1ccc(C)cc1NC(=O)CN(C)S(=O)(=O)c1ccc2[nH]c(=O)oc2c1	-12.6%	3.1%
COc1cccc(-c2nc(SCC(=O)NCc3ccccc3)c3c(=O)n(C)c(=O)n(C)c3n2)c1	6.6%	-28.3%
CCNC(=O)c1ccc(CSc2nc3ccncc3n2Cc2ccc(F)cc2)cc1	-17.1%	1.4%
COc1ccc(C)cc1-n1c(SCC(=O)NCc2ccco2)nc2c([nH]c3ccccc32)c1=O	-16.6%	u
Cc1ccc(CCNC(=O)c2cnc3c(-c4ccc(F)cc4)c(C)nn3c2C)cc1	3.7%	7.5%
O=c1c2cc3c(cc2n(Cc2ccccc2)c(=O)n1Cc1nc(-c2ccccc2)no1)OCO3	14.3%	-28.4%
COc1ccc(-c2onc(C)c2C)cc1S(=O)(=O)NCC(C)c1ccccc1 (stereo not drawn)	u	u
O=C(CSc1nc2nccnc2c(=O)n1CCc1c[nH]c2ccccc12)Nc1ccc(F)cc1	-21.6%	6.96µM*
Cc1ccc(Cn2cnc3c(oc4ccccc43)c2=O)cc1	25.4%	u
COc1ccccc1CNC(=O)CCC1N=C2c3ccccc3N=C(SCc3ccc(Cl)cc3)N2C1=O (stereo not drawn)	-24.9%	u
CN1CCN(C(c2ccc(Cl)cc2Cl)c2sc3nc(-c4ccco4)nn3c2O)CC1 (stereo not drawn)	-8.8%	22.5%
CN1C[C@H]2c3ccccc3Oc3ccc(Cl)cc3[C@@H]2C1	6.0%&-19.9%	x
COc1cccc(CNC(=O)Cc2c(C)c3cc4c(C)coc4cc3oc2=O)c1	-9.0%	u
COc1ccc(OC)c(S(=O)(=O)N2Cc3ccccc3CC2C(=O)Nc2ccc(Cl)cc2)c1 (stereo not drawn)	-28.3%	u
Cc1cccc(Oc2coc3cc(OCC(=O)NC4CCCCC4)ccc3c2=O)c1	u	-63.8%
Cc1ccc(OCC(=O)Nc2ccc(OCc3cc(=O)n4cccc(C)c4n3)cc2)cc1C	-7.8%	-16.3%

By substructure, the entries above containing bromine.
SMILES	HTT promoter inh	PMP22 txn
O=C(CCS(=O)(=O)c1nc(-c2cccs2)cc(C(F)(F)F)n1)Nc1ccc(Br)cc1	u	6.45µM*
CCc1nn(CCCC(=O)NCc2cc(Br)ccc2OC)c(=O)c2cc3occc3n12	u	u
Cc1ccc2c(c1Br)C(O)(CC(=O)c1ccc(F)cc1)C(=O)N2 (stereo not drawn)	-9.0%	-30.3%

Next records follow:
SMILES	HTT promoter inh	PMP22 txn
O=C(CCOc1ccccc1)N(Cc1cccnc1)c1nc2c(F)cccc2s1	8.8%	u
COc1ccc(OC)c(NC(=O)C2CCCN(S(=O)(=O)c3ccc4c(c3)CCCC(=O)N4)C2)c1 (stereo not drawn)	u	u
COc1ccc(S(=O)(=O)c2c(Nc3ccc(F)cc3)sc(C(=O)c3ccc(C)cc3C)c2N)cc1	u	-8.6%
COc1ccc(S(=O)(=O)NC(C)(C)C)cc1-c1nnc2c3ccccc3c(C)nn12	0.4%	u
COC(=O)c1ccccc1NC(=O)Cn1c(=O)nc(-c2ccccc2)c2cc(Cl)ccc21	-9.3%	-3.6%
Oc1ccc(-c2nc3ccc(Cl)cn3c2Nc2ccc3c(c2)OCO3)cc1	12.7%	-20.5%
CCCCc1nc(SCC(=O)Nc2ccc(S(N)(=O)=O)cc2)n[nH]1	-3.4%	-0.8%
Cc1ccccc1CN1CCc2nc(N3CCN(c4ncccn4)CC3)ncc2C1	u	u
Cc1cccc(N2CCN(C(=O)C3CCN(Cc4nc(-c5ccc(Cl)cc5)oc4C)CC3)CC2)c1C	-8.0%	17.0%
O=C(Nc1ccc(Cl)cc1)C1CCN(c2nc3ccccc3n3cccc23)CC1	-13.0%	u
O=S(=O)(c1ccccc1)c1nc(-c2ccccc2F)oc1N1CCOCC1	u	-10.1%
O=C(NCc1ccccc1Cl)C1CCCN(C(=O)c2cnn(-c3ccccc3)c2-n2cccc2)C1 (stereo not drawn)	u	u
COc1cc(C(=O)N(Cc2ccc(N(C)C)cc2)CC2CCCO2)cc(OC)c1OC (stereo not drawn)	-1.0%	-24.1%
Cc1ccc(Cl)cc1N1CCN(S(=O)(=O)c2ccc3c(c2)CC(=O)N3C)CC1	u	-25.2%
COc1cc(-c2noc(-c3ccc(N4CCCCC4)c([N+](=O)[O-])c3)n2)cc(OC)c1OC	-11.2%	-7.8%
CCOc1ccc(NC(=O)Cn2cc(C(=O)c3ccc(CC)cc3)c(=O)c3cc(OC)c(OC)cc32)cc1	-1.8%	-25.5%
Cc1cccc(N2CCN(S(=O)(=O)c3cc(Br)cc4c3N(C(=O)C3CC3)CC4)CC2C)c1 (stereo not drawn)	5.2%	-25.9%
Cn1nc(C(=O)N2CCN(c3ccc(Cl)cc3)CC2)c2c1-c1ccccc1S(=O)(=O)C2	u	u
Cc1ccc(CNC(=O)c2ccc3c(c2)N(Cc2cccc(C)c2)C(=O)CS3)cc1	-27.3%	2.7%
O=C(Cn1cc(SCc2ccc(F)cc2)c2ccccc21)N1CCCCC1	2.3%	-79.5%
O=C(Cn1ccn(-c2ccc(F)c(F)c2)c(=O)c1=O)NCCc1ccccc1	-15.8%	-0.6%
O=C(NC1CC(=O)N(c2ccccc2)C1)c1ccc(S(=O)(=O)N2CCCC2)cc1 (stereo not drawn)	u	-9.0%
CCOC(=O)c1sc(N2C(=O)c3oc4ccccc4c(=O)c3C2c2ccc(C(C)(C)C)cc2)nc1C (stereo not drawn)	-17.9%[11.5 µM]	0.1%
CC(C)Sc1ncc(Cl)c(C(=O)Nc2c(C(=O)Nc3ccccc3)oc3ccccc23)n1	-3.2%	-14.5%

Molecules listed so far containing a nitro group on carbon (2):
SMILES	HTT promoter inh	PMP22 txn
COc1cc([N+](=O)[O-])ccc1NC(=O)N1CCC2(CC1)Nc1cc(F)ccc1-n1cccc12	u	0.8%
COc1cc(-c2noc(-c3ccc(N4CCCCC4)c([N+](=O)[O-])c3)n2)cc(OC)c1OC	-11.2%	-7.8%
